Source: PubChem
D2 PAM – positive allosteric modulators of human D2 dopamine receptor. potentiation, % (no concentration beside the values). DiscoveRx D2 beta-arrestin cells, luminescence, 90 min; 100% = 57 uM dopamine signal. P14416. 0.23% of 360,000 active; active = potentiation of 50% or more; inconclusive = 30% to 50%; inactive = 30% or less;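 note: compound concentration not given in the record; tested on top of an EC20 dose of dopamine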
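PathHunter D2 cells, attached overnight at 37 deg C, received compound in DMSO plus dopamine at EC20 (50 nM final) for 90 min at 37 deg C. Beta-arrestin recruitment was read as luminescence after 1 h with detection reagent at ambient temperature.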
PINK1 modulator – changes PINK1 expression. PINK1 immunofluorescence, high-content cytometry, 24 h. Potency, µM (top dose mostly 76.6 µM), for the others: at the top dose activation (PINK1 increase), most hits filed as activators. 0.2% of 410,000 active; active = well fitted activation curve with a large enough effect; inconclusive = small, poorly fitted or top-dose-only effect; inactive = flat fitted curve, though single readings scatter; cell line not stated here;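 note: potency is the fitted concentration of half-maximal effect; % of control where 0% means no effect; nearly all actives have a fitted effect of over 65% in size; a mitochondrial uncoupler was the plate control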
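Measures PINK1 amount and localization on or inside mitochondria by immunofluorescence. Stable cells get compounds at 5 concentrations for 24 hours before fixation and staining; CCCP controls included.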
TRPML1 blocker – blocks the human TRPML1 channel; TRPML1-inducible cells, Ca2+ dye fluorescence, FDSS; stronger effect = lower value; inhibition of EC80 agonist-evoked calcium signal; activity change, negative = inhibition, % (test concentration not listed); 0.02% of 390,000 active; AID 624415; in the data active means activity change below about -50%; inconclusive means about -30% to -50%; inactive means above about -30%;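 note: stimulus is agonist 54-4 at its EC80 concentration; % is set by controls: 0 for no effect and ±100 for the full control effect; compound concentration not given in the record; the text of the record puts the active cut at -80%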
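Tet-induced TRPML1-DL cells loaded with Ca8 no-wash calcium dye were read kinetically on FDSS. Compound addition was followed by EC80 agonist 54-4 (4 uM final); inhibition was read over 110 s.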
D2 agonist – agonists of human D2 dopamine receptor (beta-arrestin); DiscoveRx PathHunter D2 beta-arrestin, luminescence, 90 min; 100% = 57 uM dopamine signal; activation, % (no concentration beside the values); P14416; AID 624465; 0.084% of 360,000 active; in the data active = activation above about 40%; inconclusive = about 15% to 40%; inactive = below about 15%; note: compound concentration not given in the record; the text of the record calls up to 30% inactive
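Agonist mode: compounds alone added to overnight-plated D2 PathHunter cells for 90 min at 37 C, with 57 uM final dopamine (EC100) defining full response. Beta-arrestin recruitment detected by chemiluminescent reagent, read after 1 h at ambient temperature.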
Six1-Eya2 inh – Six1/Eya2 interaction inhibition; Q15475+O00167; AlphaScreen GST-Six1/His-Eya2 binding, biochemical; stronger effect = lower value; control for the full effect not named in the record; activity change, % (test concentration not listed); 0.56% of 360,000 active; in the data active = activity change below about -65%; inconclusive = about -30% to -65%; inactive = above about -30%; note: % is set by controls: 0 for no effect and ±100 for the full control effect; compound concentration not given in the record
Target sequence (O00167 whole entry, looked up): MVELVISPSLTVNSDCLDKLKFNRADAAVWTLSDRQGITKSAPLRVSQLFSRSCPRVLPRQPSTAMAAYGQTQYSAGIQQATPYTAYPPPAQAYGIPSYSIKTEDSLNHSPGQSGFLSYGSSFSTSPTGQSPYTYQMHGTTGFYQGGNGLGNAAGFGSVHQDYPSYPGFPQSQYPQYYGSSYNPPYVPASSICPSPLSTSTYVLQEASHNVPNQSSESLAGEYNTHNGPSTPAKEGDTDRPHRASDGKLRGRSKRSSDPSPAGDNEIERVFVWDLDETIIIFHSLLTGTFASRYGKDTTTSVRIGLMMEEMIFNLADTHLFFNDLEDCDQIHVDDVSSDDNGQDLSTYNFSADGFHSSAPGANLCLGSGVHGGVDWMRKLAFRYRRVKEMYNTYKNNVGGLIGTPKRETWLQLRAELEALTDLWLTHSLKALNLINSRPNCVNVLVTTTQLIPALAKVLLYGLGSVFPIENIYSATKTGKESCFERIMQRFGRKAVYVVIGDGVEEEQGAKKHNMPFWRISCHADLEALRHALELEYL
Target sequence (Q15475 whole entry, looked up): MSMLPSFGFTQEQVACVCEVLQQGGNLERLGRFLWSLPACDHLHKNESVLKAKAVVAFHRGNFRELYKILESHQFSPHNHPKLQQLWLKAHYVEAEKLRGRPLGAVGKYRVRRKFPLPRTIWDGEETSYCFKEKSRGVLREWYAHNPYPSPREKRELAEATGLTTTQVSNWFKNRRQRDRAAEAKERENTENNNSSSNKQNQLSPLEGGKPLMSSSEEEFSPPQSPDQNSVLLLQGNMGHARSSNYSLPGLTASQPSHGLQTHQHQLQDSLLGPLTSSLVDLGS
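AlphaScreen luminescence read after one hour at 37 °C in darkness. Pin-transferred compounds met GST-Six1 and His-Eya2 protein (5X stock 250 nM/500 nM) plus glutathione donor and Ni-chelate acceptor beads (5X, 50 ug/mL).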
TRPML1 ag – human mucolipin-1 channel agonism; Q9GZU1; 0.12% of 410,000 active; AID 624414; activation, % (concentration not given with the values); TRPML1-expressing cells, Ca2+ dye fluorescence, FDSS; host cell line not named in the record; reference of the full effect not given here; in the data active = activation above about 50%; inconclusive = about 30% to 50%; inactive = below about 30%; note: 0% is about no effect; the text of the record puts the active cut at 80%
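TRPML1-DL cells, Tet-induced overnight (~16 h, 37 degrees C), loaded 45-90 min at room temperature with Ca8 no-wash calcium dye plus quencher. FDSS fluorescence: 10 s baseline, compound pin-transfer, 110 s agonist read, then EC80 54-4 (4uM final) and 110 s antagonist read.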
* marks the source's active call; other numbers are inactive results; ? = inconclusive; . = no result given; & = joins results of further samples; [ ] = remark or other dose.

SMILES	D2 PAM	PINK1 modulator	TRPML1 blocker	D2 agonist	Six1-Eya2 inh	TRPML1 ag
COc1ccc(OC)c(C(C(=O)NC2CCCCC2)N(C(=O)c2ccccn2)c2cccnc2)c1 (stereo unspecified)	-1.8	-2.3%	5.0	-1.2	10.9	-0.5
CCN1CCCC1CN(Cc1cc2ccc(C)cc2[nH]c1=O)C(=S)Nc1cccc(OC)c1 (stereo unspecified)	-40.9	2.9%	-26.6	-3.4	-9.7	0.5
O=S(=O)(Cc1ccccc1)N1CCN(Cc2ccc(Br)cc2)CC1	-9.4	?	-24.3	-4.2	1.6	1.1
O=C(COC(=O)c1ccccc1Nc1ccccc1)NCc1ccco1	-15.0	-0.6%	-7.4	-1.3	8.6	0.3
COc1ccc(Nc2nc3cc(C)ccc3cc2C#N)cc1	2.2	7.8%	32.3	9.5	9.9	-0.1
CCCCn1nnnc1C1(C)CCC(=O)N1Cc1cccs1 (stereo unspecified)	.	-0.2%	.	.	-2.1	-0.5
COc1ccccc1-c1nc2c3ccccc3nc(=S)n2[nH]1	-5.6	2.7%	.	1.9	0.2	.
Cc1cc(C(F)(F)F)nc(SCC(=O)NC2CCCCC2)n1	-1.2	0.4%	33.2	-1.4	21.6	-0.2
Cc1ccc(C)c(OCC(=O)NCC2COc3ccccc3O2)c1 (stereo unspecified)	-0.6	-0.8%	7.5	0.5	3.2	1.1
OC(c1ccc(F)cc1)c1nc(-c2ccc(F)c(Cl)c2)cs1 (stereo unspecified)	-3.3	25.7%	.	1.6	1.4	-0.7
O=C(Cc1ccc(F)cc1)NC1CCSC1=O (stereo unspecified)	4.6	0.6%	5.1	5.7	5.8	0.4
CSc1ccc(NC(=O)Nc2ccccc2C(N)=O)cc1	-26.8	2.2%	17.1	-2.3	-0.6	-0.1
CCC(=O)Nc1ccc(C(=O)Nc2ccc(OC)cc2[N+](=O)[O-])cc1	-11.4	3.8%	-16.7	-2.2	9.3	0.0
COc1ccc2cc(S(=O)(=O)c3ccccc3)c(=O)oc2c1	-8.5	2.7%	1.2	-4.5	1.7	-0.5
CN(CC(=O)Nc1ccc(N2CCOCC2)cc1)C(=O)CSc1ccc(F)cc1	11.8	0.0%	15.1	0.0	1.8	0.5
Cc1cccc(CN2CCC(CNC(=O)Nc3ccc(F)c(Cl)c3)CC2)c1	-17.0	-1.4%	-25.3	-2.7	0.3	-0.5
O=C(Nc1ccc(Oc2ncccn2)cc1)c1ccco1	-0.8	1.7%	-3.6	2.0	11.1	0.1
COc1ccc(C(C(=O)NC2CCCC2)N(Cc2ccc(C)cc2)C(=O)c2ccn[nH]2)cc1OC (stereo unspecified)	-7.9	-2.1%[38.3 µM]	-7.9	-3.8	0.0	0.1
C/C(=N\NC(=O)C1COc2ccccc2O1)c1cc2ccccc2o1 (stereo unspecified)	-9.1	-2.6%	1.5	-1.6	2.1	-0.8
COCCNC(=O)C1CCC(CNS(=O)(=O)c2ccc(F)cc2)CC1 (stereo unspecified)	-2.7	-1.0%	8.1	2.0	2.6	-0.8
O=C(N/N=C/c1ccc2c(c1)OCO2)c1cc(-c2ccccc2Cl)nc2ccccc12	-17.4	1.7%	-5.9	-3.8	-0.5	-0.5
COC(=O)C(Cc1c[nH]c2ccccc12)N1CCS(=O)(=O)CC1 (stereo unspecified)	-1.3	-0.6%	33.7	-3.3	7.8	0.3
Cc1cc(-c2ccc(C)c(S(=O)(=O)NCc3cccs3)c2)on1	.	9.0%	4.3	.	.	0.9
COc1ccc2c(CNCc3cccs3)c(C(=O)O)n(Cc3ccc(C)cc3)c2c1	.	0.2%	2.6	.	.	0.2
Cc1ccc(S(=O)(=O)NC(=O)c2cccc(N(C)C)c2)cc1	-2.3	1.9%	6.6	5.3	9.0	1.1
CCCN(CC(=O)Nc1ccccc1C)C(=O)c1ccc(NC2CC2)c([N+](=O)[O-])c1	-10.1	0.0%	-0.7	0.1	-9.8	1.9
CC[C@]12C(=O)N(C)C[C@H]([C@@H]3C(=O)N(Cc4ccccc4)C(=O)[C@@H]31)N2C(=O)c1ccc(C(C)(C)C)cc1	-9.2	0.1%	-0.8	-3.1	1.9	-0.2
C=CCN1C(=O)/C(=C/c2ccc(O)cc2)S/C1=N/c1nccs1	-8.4	5.8%	17.7	-0.9	-11.2	4.0
CC(=O)c1cccc(N(C(=O)CNC(=O)c2ccco2)C(C(=O)NCc2ccco2)c2ccccc2)c1 (stereo unspecified)	-5.7	0.8%	-9.9	-4.8	-6.9	0.7
COc1cccc(-c2cc(C(=O)Nc3ccc4c(c3)OCO4)no2)c1	-1.9	5.2%&-0.1%	22.1&8.0	-0.9	-3.0	0.5&-0.7
COC(=O)c1ccc(C(=O)OC)c(NC(=S)N2CCN(C)CC2)c1	-1.5	0.0%	-10.1	-1.7	5.0	0.4
NC(N)=NS(=O)(=O)c1ccc(NC(=S)Nc2ccc(F)cc2)cc1	-11.5	4.3%	-11.8	-0.1	7.0	0.3
COc1ccc(CCNC(=O)CN2C(=O)COc3ccc(S(=O)(=O)N4CCCC4)cc32)c(OC)c1	-6.7	3.6%&1.7%	-9.8&-16.2	-0.9	-1.5	-1.0&1.8
COc1ccc(NS(=O)(=O)c2cc(NC(=O)[C@H](C)NC(N)=O)ccc2N2CCCC2)cc1	-4.0	5.0%	-7.8	8.3	-17.4	0.8
CC(Cc1ccccc1)NC(=O)c1cc2ccccc2o1 (stereo unspecified)	-13.9	1.4%	-4.8	-2.8	-1.0	0.8
Cc1ccc(C)c(NC(=O)CN(C)C(=O)c2ccccc2OCc2ccc(Cl)cc2)c1	1.4	-1.4%	-0.2	2.4	12.2	2.7
O=C(c1ccco1)N1CCN(C2CN(C3CCCC3)S(=O)(=O)C2)CC1 (stereo unspecified)	-5.9	3.3%	.	6.5	8.7	-0.3
Cc1cc(C)n(C(=O)CCN2C(=O)c3ccccc3C2=O)n1	-18.4	.	64.4	0.2	-3.1	-0.3
Cc1ccccc1Nc1nc(N)[nH]c(=O)c1N=O	-10.7	1.7%	.	-5.7	?	-0.2
O=C(Cc1ccccn1)c1ccncc1	-6.9	0.5%	-3.5	-1.7	-4.8	0.3
Cn1c(=O)oc2cc(S(=O)(=O)CCC(=O)NCc3ccc(Cl)cc3)ccc21	.	1.3%	5.1	.	.	-0.7
O=C(O)c1ccc(CNCc2ccc(Cl)cc2Cl)cc1	-9.9	-0.3%	-6.5	-3.5	-2.3	-0.9
COc1cccc(NC(=O)NCc2c(-c3ccccc3)noc2C)c1	-1.7	1.6%	-0.6	-1.8	-11.0	-0.7
CC1(C)Cc2nc3n[nH]c(N)c3cc2CO1	11.3	14.8%[38.3 µM]	-5.9	-0.8	4.0	2.0
NC(=O)COc1ccc(-c2noc(COc3ccc(Cl)cc3)n2)cc1	.	5.7%	-1.4	.	.	-0.7
CCOC(=O)C1=C(CN2CCN(c3ccc(Cl)cc3)CC2)NC(=O)NC1c1ccc(OC)cc1 (stereo unspecified)	.	0.4%	-4.5	.	.	-0.8
CC(=O)/C(=N\Nc1ccccc1)Oc1ccc(Br)cc1	-4.0	-0.2%	-7.8	-1.3	-12.5	-0.1
CCN(CC)C(=O)C(=O)N/N=C/c1ccc(F)cc1	4.4	1.3%	-16.6	5.5	14.3	-0.3
CC1CCCCN1Cc1nc2c(c(=O)n(C)c(=O)n2C)n1CCCc1ccccc1 (stereo unspecified)	-1.2	-0.7%	16.6	0.6	3.4	0.5
Cc1ccc(S(=O)(=O)N(C)C)cc1NC(=O)Nc1ccccc1F	-14.2	2.2%	14.8	-3.1	-9.5	1.5
CCOC(=O)c1cc(-c2ccc(N)cc2)sc1N	-6.8	-0.1%[38.3 µM]	10.7	0.4	-23.6	0.5
Cc1ccc(C)c(NC(=O)CN(C)C(=O)c2ccc(-c3cccc(C(F)(F)F)c3)o2)c1	12.0	5.8%	-4.4	10.9	0.4	-0.2
CCCOc1ccc(-c2nc(C#N)c(N3CCN(CC)CC3)o2)cc1	-31.8	-1.1%	5.2	-0.8	-22.8	-1.8
CC(C)CN1C(=O)NC(NS(=O)(=O)c2ccc(N)cc2)(C(F)(F)F)C1=O (stereo unspecified)	-17.5	-2.3%	12.1	-1.9	9.3	0.4
COc1ccc(N2CCN(C(=O)c3ccc4c(c3)NC(=O)C(CSCc3ccccc3F)N4)CC2)cc1 (stereo unspecified)	-25.8	0.2%	7.2	-4.9	-11.4	-0.5
Clc1ccccc1-c1nnc(-c2cccnc2)o1	-1.0	-1.2%	48.8	-1.3	1.2	0.0
Nc1nc(N)c(N=Nc2ccc(SCC(=O)O)cc2)c(=O)[nH]1	-19.8	0.1%	-6.3	-2.7	-17.9	-0.2
Cc1c(C(=O)NCc2ccc3c(c2)OCCO3)sc(=O)n1Cc1ccccc1F	-4.0	-0.1%	.	2.9	-4.6	0.3
COCCNC(=O)c1ccc(CN2CCOCC2)cc1	-3.1	-3.1%	3.3	0.0	6.5	-0.6
O=C(CN1C(=O)NC2(CCCCC2)C1=O)NC1CCCc2ccccc21 (stereo unspecified)	-16.7	9.1%	-1.2	-1.7	8.5	0.0

Four entries already listed, sorted by molecular weight, low to high:
SMILES	D2 PAM	PINK1 modulator	TRPML1 blocker	D2 agonist	Six1-Eya2 inh	TRPML1 ag
CC(=O)/C(=N\Nc1ccccc1)Oc1ccc(Br)cc1	-4.0	-0.2%	-7.8	-1.3	-12.5	-0.1
CCCOc1ccc(-c2nc(C#N)c(N3CCN(CC)CC3)o2)cc1	-31.8	-1.1%	5.2	-0.8	-22.8	-1.8
Cc1c(C(=O)NCc2ccc3c(c2)OCCO3)sc(=O)n1Cc1ccccc1F	-4.0	-0.1%	.	2.9	-4.6	0.3
COc1ccc(N2CCN(C(=O)c3ccc4c(c3)NC(=O)C(CSCc3ccccc3F)N4)CC2)cc1 (stereo unspecified)	-25.8	0.2%	7.2	-4.9	-11.4	-0.5

Next section
SMILES	D2 PAM	PINK1 modulator	TRPML1 blocker	D2 agonist	Six1-Eya2 inh	TRPML1 ag
CCCc1c(C(=O)N/N=C(\C)CCc2ccccc2)nnn1-c1nonc1N	-2.9	-0.9%	5.6	-2.7	14.5	-0.2
COc1ccccc1C(=O)Cc1ccccc1	-19.0	1.6%	-13.3	-4.1	3.9	0.0
O=c1c2cc3c(cc2nc2sc(Nc4ccc(F)cc4F)nn12)OCO3	.	0.9%	-7.4	.	.	-0.4
CC(C)(C)OC(=O)CNC(=O)c1[nH]cnc1C(=O)N[C@@H](CCCCN)C(=O)OC(C)(C)C	-2.0	0.2%	-7.8	-0.3	13.9	-0.4
Cc1ccc(C(=O)N2CCN(c3ccccc3)CC2)cc1S(=O)(=O)N1CCOCC1	-4.8	-0.2%	-15.2	-0.9	11.4	-0.3
C[C@H]1COc2cccc(N3CCC[C@H]3CO)c2S(=O)(=O)N1	.	0.3%	.	.	2.6	-0.2
O=C(CCl)NCc1c(Cl)cccc1-n1cccc1	-4.1	-5.3%[38.3 µM]	1.0	-0.2	-1.6	-0.7
Cc1cc(C(=O)NCC(=O)OCC(=O)N(C)C2CCCCC2)ccc1[N+](=O)[O-]	-5.5	5.7%	0.9	-1.4	-7.1	-0.7

Rows were taken by chance; 1% or so of the library scored in one or more.
